Rango dissoc inh – prevents RanGTP from dissociating the Rango-importin beta complex. O95149+P62826. Biochemical FRET Rango-importin beta, RanGTP-induced dissociation. Potency, µM (series often up to 46.1 µM), without a hit: top-dose activity change, negative = inhibition. actives 0.071% (n = 340,000). AID 540253; active means falling FRET ratio curve, often poorly fitted, with flat reads before Ran was added; inconclusive means other falling curves, or compound fluorescence or quenching; inactive means flat or rising ratio curve;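 also: potency is read from the fitted curve at half-maximal effect; % of control where 0% means no effect; nearly all actives have a fitted effect of over 45% in size; -100% = wells without RanGTP and RCC1; the record marks most hits as doubtful in a second field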
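Compounds sat 5 min at room temperature with 0.1 uM Rango biosensor plus 0.25 uM importin beta, then FRET pre-read. RanGTP-RCC1 (0.6 uM Ran, 2mM GTP, 0.2 uM RCC1) added for 45 min, and the CFP/YFP post-read measured blocked complex dissociation.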
Rango-impB inh – prevents formation of the Rango-importin beta complex. Q14974. Rango CFP/YFP FRET sensor + importin beta, 45 min. Potency, µM (series often up to 92.2 µM), for the others: at the highest dose inhibition of complex formation. actives 0.031% (n = 340,000). AID 540263; active = rising FRET ratio curve, often small or poorly fitted; inconclusive = mostly compound fluorescence or quenching in the first reads; inactive = flat curves in all reads;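 also: potency is read from the fitted curve at half-maximal effect; 0% = DMSO wells and 100% = buffer wells lacking importin beta; nearly all actives have a fitted effect of over 15% in size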
Target sequence (Q14974 whole entry, looked up): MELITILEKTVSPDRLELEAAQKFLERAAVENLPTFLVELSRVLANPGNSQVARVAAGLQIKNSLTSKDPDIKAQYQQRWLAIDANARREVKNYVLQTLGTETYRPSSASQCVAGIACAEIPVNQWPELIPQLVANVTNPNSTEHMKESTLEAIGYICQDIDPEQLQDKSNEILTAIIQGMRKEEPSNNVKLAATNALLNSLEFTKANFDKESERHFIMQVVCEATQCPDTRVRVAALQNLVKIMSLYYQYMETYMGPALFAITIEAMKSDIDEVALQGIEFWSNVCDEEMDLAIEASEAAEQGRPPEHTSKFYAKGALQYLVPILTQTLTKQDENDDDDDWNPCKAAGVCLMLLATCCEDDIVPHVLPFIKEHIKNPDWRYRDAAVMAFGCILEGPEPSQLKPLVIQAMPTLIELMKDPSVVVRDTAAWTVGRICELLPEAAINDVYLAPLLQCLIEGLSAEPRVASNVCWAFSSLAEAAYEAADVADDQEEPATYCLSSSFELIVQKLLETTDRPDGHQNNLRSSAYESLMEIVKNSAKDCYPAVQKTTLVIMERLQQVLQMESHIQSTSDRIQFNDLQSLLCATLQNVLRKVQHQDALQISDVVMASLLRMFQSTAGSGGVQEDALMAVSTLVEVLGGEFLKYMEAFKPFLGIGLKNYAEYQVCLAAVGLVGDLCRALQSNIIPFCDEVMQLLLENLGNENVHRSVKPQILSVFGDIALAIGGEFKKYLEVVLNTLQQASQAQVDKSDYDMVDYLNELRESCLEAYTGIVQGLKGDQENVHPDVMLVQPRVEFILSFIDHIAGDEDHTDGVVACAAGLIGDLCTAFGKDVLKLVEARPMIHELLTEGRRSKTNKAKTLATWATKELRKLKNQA
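FRET biosensor (snurportin 1 IBB flanked by EYFP and cerulean), 50 nM, with compound 5 min, then 0.125 microM importin beta in PBS, 1 mM DTT, 0.02% Tween-20, 0.1% BSA. CFP/YFP ratio read after 45 min at room temperature; pre-read flags interference.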
miR-21 FLuc – raises the signal of a miR-21 reporter | HeLa miR-21 FLuc reporter, luciferase, 48 h | Potency, µM (series often up to 38.3 µM), inactives show top-dose reporter change, positive = more light | 340,000 tested, under 10 active | AID 2288; active = well fitted rising curve with a large enough effect; inconclusive = small, poorly fitted or top-dose-only effect; inactive = no such curve, though single readings can be large or run the other way;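 also: % of control where 0% means no effect; miR-21 action dims this reporter so a rising signal means less miR-21 action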
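HeLa cells endogenously expressing miR-21, stably carrying CMV-driven firefly luciferase with a downstream miR-21 binding site, 2000 cells/well. Titrations up to approximately 40 uM, 48 hours; luciferase luminescence read.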
GLA inh pH 4.5 – inhibitors of human alpha-galactosidase A at pH 4.5; P06280; purified enzyme, 4-MU-alpha-Gal fluorescence, pH 4.5; activity change, negative = inhibition, % at 105 µM; AID 1467; 230,000 tested, under 10 active; inconclusive = small, poorly fitted or top-dose-only inhibition, or a rising curve; inactive = flat fitted curve, though single readings scatter; no compound was filed as active;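 also: 0% = full activity with enzyme and -100% = basal without enzyme; dose as in the result columns while the protocol names 77 µM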
Active calls of the source: *; u = inconclusive; x = not tested or not shown.

Rango-impB inh,Rango dissoc inh,GLA inh pH 4.5,miR-21 FLuc,Molecule
-1.3%,0.3%,x,x,CN1C[C@@H]2[C@@H]3C(=O)N(Cc4ccccc4)C(=O)[C@@H]3[C@](C)(C1=O)N2C(=O)c1ccc(F)cc1
u,-22.5%,-6.7,-6.9%,CCN(CC)S(=O)(=O)c1cccc(C(=O)N/N=C/c2ccc(O)c(O)c2O)c1
-1.3%,7.5%,-10.1,-69.8%,COc1ccccc1C(=O)N/N=C/c1cnc2ccccc2n1
0.9%,-2.1%,-1.7,-35.8%,C/C(=N\Nc1cccc([N+](=O)[O-])c1)c1ccccc1O
-1.8%,3.7%,x,x,O=C1OCCC1(c1ccccc1)c1ccccc1
-5.0%,-2.8%,-4.2,-23.5%,CC(=O)OC(COc1cccc(C)c1)Cn1cnc2ccccc21 (configuration not stated)
0.3%,0.3%,-7.3,-0.6%,Cc1cccc(C)c1N1C(=O)C2ON(c3ccccc3)C(c3ccncc3)C2C1=O (configuration not stated)
-4.7%,-6.4%,11.3,-10.1%,Cc1c(Br)cc(-c2nnco2)cc1Br
-3.6%,-0.1%,8.1,4.1%,O=C1CCC/C1=C\c1ccccc1
-0.6%,u,-10.3,-5.4%,CCCC(=O)OCC(=O)Nc1ccccc1Sc1ccccc1
3.3%,0.2%,9.5,-3.1%,COc1ccc(S(=O)(=O)N2CCC(C(=O)N3CCOCC3)CC2)cc1OC
-1.0%,14.9%,x,-5.5%,O=C(Cc1ccc(Br)cc1)NCCCn1ccnc1
-0.6%,-25.4%,x,x,CC1=C(O)C(=O)C(C2=C(O)C(=O)C(C)=C(O)C2=O)=C(O)C1=O
1.8%,5.2%,x,-3.3%,Cc1ccc(CNC(=O)C2CCCN(c3ncnc4c3nc3n4CCCCC3)C2)cc1 (configuration not stated)
-1.8%,-3.7%,x,2.0%,Cc1c(O)nc(SCC(=O)Nc2nccs2)n(-c2ccccc2F)c1=O
3.4%,-11.8%,x,x,CC1CC(C)(C)CC2(C1)NC(=O)N(CC(=O)N1CCN(S(=O)(=O)c3cccc(F)c3)CC1)C2=O (configuration not stated)

Rewritten field by field: four of the compounds above.
CC1=C(O)C(=O)C(C2=C(O)C(=O)C(C)=C(O)C2=O)=C(O)C1=O
  Rango-impB inh: -0.6%
  Rango dissoc inh: -25.4%
  GLA inh pH 4.5: x
  miR-21 FLuc: x

Cc1ccc(CNC(=O)C2CCCN(c3ncnc4c3nc3n4CCCCC3)C2)cc1 (configuration not stated)
  Rango-impB inh: 1.8%
  Rango dissoc inh: 5.2%
  GLA inh pH 4.5: x
  miR-21 FLuc: -3.3%

CC1CC(C)(C)CC2(C1)NC(=O)N(CC(=O)N1CCN(S(=O)(=O)c3cccc(F)c3)CC1)C2=O (configuration not stated)
  Rango-impB inh: 3.4%
  Rango dissoc inh: -11.8%
  GLA inh pH 4.5: x
  miR-21 FLuc: x

Cc1c(O)nc(SCC(=O)Nc2nccs2)n(-c2ccccc2F)c1=O
  Rango-impB inh: -1.8%
  Rango dissoc inh: -3.7%
  GLA inh pH 4.5: x
  miR-21 FLuc: 2.0%

Continuation:
Rango-impB inh,Rango dissoc inh,GLA inh pH 4.5,miR-21 FLuc,Molecule
0.3%,-18.4%,x,-15.5%,Cc1ccc(CNC(=O)CSc2nc3ccccc3[nH]2)cc1
1.1%,13.6%,-7.8,-10.7%,COc1ccc(-c2nc3ccccc3c(=O)n2CCCn2ccnc2)cc1
u,u,-4.6,18.2%,Cc1ccc(C2C(C#N)=C(N)Oc3cc4c(cc32)OCO4)cc1 (configuration not stated)
0.0%,-3.1%,x,-0.1%,O=C(Cn1ncc2c([nH]c3ccccc32)c1=O)N1CCc2ccccc2C1
-1.0%,1.6%,1.9,-3.5%,Cc1onc(-c2ccccc2Cl)c1C(=O)Nc1ccc(CN2CCCC2)cc1
5.0%,-1.8%,x,x,C[C@H](CO)N1C[C@H](C)[C@@H](CN(C)Cc2ccc(C(=O)Nc3ccccc3N)cc2)Oc2c(NC(=O)C3CCCCC3)cccc2C1=O
u,-2.9%,-4.0,-9.1%,CC1(C)Cc2c(C#N)c(N)n(-c3ccccc3)c(=S)c2CO1
-3.2%,1.3%,-0.4,-0.3%,O=C(NCc1ccccn1)C1CCC(CNS(=O)(=O)c2cccc3nsnc23)CC1 (configuration not stated)
1.6%,12.3%,-12.7,3.6%,FC(F)(F)c1ccc(NC2=NCCC2)cc1
-3.1%,4.7%,2.0,2.4%,COc1cc(NC2=CC(=O)CC(C)(C)C2)cc(OC)c1OC
-0.1%,3.2%,-4.8,-4.6%,CC(=O)NC1C(=O)N=C(SCC(=O)NCc2ccccc2)NC1=O (configuration not stated)
u,u,-2.4,-37.2%,CCCN1CCC(=O)N([C@H](CSc2ccc(OC)cc2)CC(C)C)CC1
x,x,-21.5,-1.6%,CN1C(=O)/C(=C\c2ccccc2)Sc2ccc(C(=O)N3CCN(c4ccccn4)CC3)cc21
u,-12.1%,x,14.8%,COc1ccc(Nc2nc(N)c(C(=O)c3ccc(OC)cc3)s2)cc1
2.3%,-1.0%,x,x,CC(C(=O)Nc1ccc2c(c1)OCO2)n1cnc2c1c(=O)n(C)c(=O)n2C (configuration not stated)
-1.6%,2.2%,-9.9,21.9%,CCCc1ccc(Oc2cn[nH]c2-c2ccc(O)cc2O)cc1
3.2%,2.7%,-9.3,-3.2%,C=CCNC(=O)c1ccc(S(=O)(=O)CC)c(Cl)c1Cl
-1.0%,-2.8%,x,x,Cc1cccc(C(=O)OCC(=O)N2CCC(c3ccccc3)=N2)c1O
1.3%,9.4%,5.9,-4.6%,COc1ccc2[nH]c(=O)c(CN(CCO)C(=O)c3cccs3)cc2c1
0.7%,11.7%,x,0.3%,CC(C(=O)Nc1cccc([N+](=O)[O-])c1)N1C(=O)NC2(CCCC2)C1=O (configuration not stated)
0.1%,1.8%,0.4,-2.2%,O=C(Nn1c(-c2ccc(Br)cc2)nc2ccccc2c1=O)c1ccc([N+](=O)[O-])cc1
-3.8%,-0.1%,x,-1.9%,CCN(CC(=O)Nc1ccc(Br)cc1)C(=O)Cc1cccc(F)c1
-0.7%,1.8%,x,3.4%,Cc1cc(C)c2sc(NC(=O)c3ccc([N+](=O)[O-])o3)nc2c1
0.1%,0.9%,-6.2,-2.4%,Cc1c(NC(=S)NC(=O)C2CCCCC2)c(=O)n(-c2ccccc2)n1C
-0.8%,2.2%,-10.0,-6.3%,Cc1cc(NC(=O)C2(c3ccccc3)CCCC2)no1
-5.8%,-3.3%,-14.9,-13.8%,CC(C)CN(C(=O)c1ccco1)c1nc2ccccc2s1
u,u,-6.8,-3.6%,COc1ccccc1NS(=O)(=O)c1cccc(C(=O)N/N=C/c2ccc(N3CCOCC3)cc2)c1
0.6%,-4.6%,4.6,-1.4%,O=C(Oc1ccccc1)c1ccccc1OS(=O)(=O)c1ccccc1
3.3%,-5.6%,-1.4,0.7%,COC(=O)c1ccc(Cl)c(NC(=O)CN2CCN(Cc3ccccc3)CC2)c1
-3.1%,-9.3%,x,x,CC(=O)C(Cc1ccccc1)NC(=O)COC(=O)c1cccc(C)c1[N+](=O)[O-] (configuration not stated)
1.6%,1.6%,x,x,COc1ccc2oc(C(=O)OCC(=O)N3CCN(c4ccccc4)CC3)c(C)c2c1
0.0%,5.1%,-6.3,11.9%,COc1ccc(CN(C)C(=S)Nc2ccc(Cl)cc2)cc1
-5.5%,-0.7%,-4.9,-2.7%,O=C(COc1ccc([N+](=O)[O-])cc1)Nc1nnc(-c2cccnc2)s1
0.6%,-8.0%,-15.4,1.9%,CCOC(=O)c1cnc(SCC(=O)Nc2cc(C(F)(F)F)ccc2N2CCOCC2)nc1N
-0.3%,1.0%,6.5,-12.3%,CCC(C)C(NC(=O)OC(C)(C)C)C(=O)NC(C(=O)N1CCCC1C(N)=O)C(C)CC (configuration not stated)
-2.9%,14.4%,x,x,CC(Sc1nc2ccccc2c(=O)n1CC1CCCO1)C(=O)N(C)Cc1ccccc1 (configuration not stated)
0.8%,-10.4%,-13.5,2.3%,CCOC(=O)c1c(C)nc2c(c1-c1ccccc1)C(=O)CC(C)(C)C2
u,u,x,x,O=C(CSC(=S)N1CCCC1)N/N=C/c1c(O)[nH]c(=S)[nH]c1=O
2.4%,13.8%,x,4.1%,NC(=O)c1c(NC(=O)c2ccccc2C(=O)O)sc2c1CCCC2
0.8%,-1.9%,x,x,COc1ccc(-c2ccc3c(c2)S(=O)(=O)c2cccc(C(=O)NC4CCCCC4)c2C3=O)cc1OC
3.5%,0.7%,4.5,-3.0%,COc1ccccc1CNC(=O)CCN1C(=O)COc2ccccc21
4.2%,5.3%,6.6,-5.0%,CN1CCN(C(=O)c2ccc3c(=O)n(Cc4ccc(Cl)cc4)c(=S)[nH]c3c2)CC1
-3.6%,1.2%,-1.2,-7.1%,Cc1nn(C)cc1C(=O)/C=C/c1ccc([N+](=O)[O-])cc1
-0.1%,0.8%,x,-13.5%,O=C(NNC(=O)c1cccc(C(F)(F)F)c1)c1ccncc1
-0.9%,3.9%,-3.5,-1.4%,N#CC1=C(N)Oc2n[nH]c(CSc3ccccc3)c2C12C(=O)Nc1ccccc12 (configuration not stated)
1.0%,0.6%,-19.9,-9.0%,CC(C)(C)c1ccc(C(=O)c2c[nH]c(C(=O)NCCCn3ccnc3)c2)cc1
-1.0%,1.8%,0.8,-1.3%,Cc1cc(-c2nnc(CCC(=O)NC(C)c3ccccc3Cl)o2)no1 (configuration not stated)
6.7%,0.8%,-2.1,-8.8%,COc1ccccc1C(=O)N/C(=C\c1ccc(Br)cc1)C(=O)NCC(=O)O
-0.7%,13.0%,3.8,-0.8%,O=C(CSc1ncccn1)N1CCN(C(=O)CSc2ncccn2)CC1
-8.4%,0.3%,0.6,-4.4%,CCCCOC(=O)C1=C(C)Nc2ncnn2C1c1ccc(OCC)c(OC)c1 (configuration not stated)
-1.1%,0.2%,x,x,Cc1cc(C)cc(N(CCC#N)C(=O)CSc2ncnc3sccc23)c1
-0.3%,-13.1%,2.5,0.6%,Cc1ccc(N2CN(CCc3ccccc3)CNC2=S)cc1
-2.4%,15.4%,7.7,-3.9%,O=C(N/N=C/c1cccs1)C(O)c1ccccc1 (configuration not stated)
-2.1%,-5.7%,2.9,-26.9%,CCOC(=O)c1sc(NC(=O)Cc2ccc(F)cc2)nc1C
1.3%,1.6%,1.4,3.2%,CCCC12CN3CC(C)(CN(C1)C3c1ccco1)C2=O (configuration not stated)
3.4%,u,2.9,-1.6%,CCCCCC1CC(=O)N(Cc2ccccc2)C(=O)N1 (configuration not stated)

Next section:
Rango-impB inh,Rango dissoc inh,GLA inh pH 4.5,miR-21 FLuc,Molecule
-2.0%,0.5%,x,-8.8%,CN(c1ccc(C(=O)NC2CCCC2)cc1)S(=O)(=O)c1ccccc1
6.0%,9.6%,x,x,COc1ccc(C2=CCCCCC2)c(OC)c1OC
-0.5%,14.1%,-0.5,0.3%,[O-]/[N+](=C\c1cccc(Br)c1)c1ccccc1
1.4%,-4.1%,1.4,-11.9%,CC(C)(C)c1ccc(NC(=O)COC(=O)CCN2C(=O)c3cccc([N+](=O)[O-])c3C2=O)cc1
u,18.4%,x,-11.0%,Cc1ccc(/C(O)=C2\C(=O)C(=O)N(C)C2c2cccc([N+](=O)[O-])c2)cc1 (configuration not stated)
-2.3%,1.4%,x,0.4%,CN1CCN(c2ccccc2NC(=O)COc2ccc(C3CCCCC3)cc2)CC1
0.1%,-4.0%,x,1.4%,CC(=O)N1CCOc2ccc(S(=O)(=O)N3CCCCC3)cc21
2.8%,-16.9%,x,-4.2%,COc1cc(Br)cc(Br)c1OCC(=O)N/N=C/c1c(C)n(C)n(-c2ccccc2)c1=O

This is a subset; the hit share may differ from the screen's.
